# HPGD inh: qHTS Assay for Inhibitors of HPGD (15-Hydroxyprostaglandin Dehydrogenase); purified HPGD, NADH fluorescence kinetic, PGE2 substrate; 150,000 tested, 4.3% active; Potency, µM, for the others: at the highest dose activity change, negative = inhibition, usual class: inhibitors; 15-hydroxyprostaglandin dehydrogenase [NAD(+)] (Homo sapiens), P15428; AID 894, 2007; active = well fitted inhibition curve with a large enough effect (not every such curve was filed as active); inconclusive = small, poorly fitted or top-dose-only effect, or another doubt; inactive = no such curve, though single readings can be large or run the other way;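 also: top concentration of the series not given in the record; plate controls included wells without enzyme; inactives centre near -10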
# Target sequence (P15428 whole entry, looked up): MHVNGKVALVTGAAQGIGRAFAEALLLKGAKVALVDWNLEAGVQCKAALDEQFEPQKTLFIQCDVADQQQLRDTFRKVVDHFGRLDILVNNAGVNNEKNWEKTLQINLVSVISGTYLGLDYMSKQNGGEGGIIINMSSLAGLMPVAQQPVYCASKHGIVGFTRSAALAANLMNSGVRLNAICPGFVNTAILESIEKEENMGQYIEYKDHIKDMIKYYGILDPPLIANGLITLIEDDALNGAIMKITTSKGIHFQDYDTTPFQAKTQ
#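 20 nM HPGD preincubated 15 min at room temperature with compound in 50 mM Tris-HCl pH 8, 0.01% Tween 20. Started with 1 mM NAD+ and 30 uM prostaglandin E2; NADH fluorescence (360/450 nm) read 5 times over 30-s intervals, last minus first.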
# * marks the source's active call; other numbers are inactive results; ? = inconclusive. % is scaled to controls: 0 for no effect and ±100 for the full control effect; potency is read from the fitted curve at half-maximal effect. The list is partial, so the mix of outcomes need not match the whole.
# Start of the data: the first 17 records, ahead of the listing:
HPGD inh	compound
-7%	COc1ccc(-c2[nH]nc(-c3ccccc3)c2-c2nc3ccccc3[nH]2)cc1
?	N#Cc1c(-c2ccccc2)cc2nc3ccccc3n2c1N
-16%	Cc1ccc(C)c(OCCN2C(=O)NC3(CCc4ccccc4C3)C2=O)c1 (configuration not stated)
-13%	Cc1ccc(C)cc1
-16%	Cc1ccc(C(=O)NCC(=O)NCC(=O)OCC(=O)c2ccc(F)cc2)cc1
1%	CCOC(=O)C(NC(=O)c1cccc(Cl)c1)(Nc1sc2c(c1C(N)=O)CCC2)C(F)(F)F (configuration not stated)
-2%	CCCC(=O)Nc1ncnc2c1ncn2[C@@H]1O[C@H]2COP(=O)(O)O[C@@H]2[C@@H]1OC(=O)CCC
-15%	COC(=O)C1=C(C(=O)OC)[C@@H]2N(C)c3ccccc3[C@@]23C[C@@H](CO)N(C(=O)c2cc(C)oc2C)C3=N1
?	C=CCNc1ncnc2c1cnn2-c1cccc(C)c1
-5%	CCOC(=O)C(NC(=O)c1ccccc1Cl)(Nc1ccc(C)c(C)c1)C(F)(F)F (configuration not stated)
-9%	CCS(=O)(=O)c1c([N+](=O)[O-])ncn1C
-3%	O=C(Cn1cncn1)NCc1ccc(Cl)cc1
-3%	CN1CCN(c2nc(-c3cccc(NS(C)(=O)=O)c3)nc3ccccc23)CC1
?	CCOC(=O)CNC(=O)CSc1nnc(SCC(=O)NCC(=O)OCC)s1
?	COCCCNC(=O)c1cc2c(-c3ccc(Cl)cc3)nn(C)c2s1
-5%	CCOC(=O)C1CCCN(Cc2cc(Br)c(OC)cc2OC)C1 (configuration not stated)
-11%	Nc1[nH]n2c(=O)c3c(nc2c1N=Nc1ccc(Cl)cc1)CCCC3

# Results, from the start:
HPGD inh	compound
-7%	COc1ccc(-c2[nH]nc(-c3ccccc3)c2-c2nc3ccccc3[nH]2)cc1
?	N#Cc1c(-c2ccccc2)cc2nc3ccccc3n2c1N
-16%	Cc1ccc(C)c(OCCN2C(=O)NC3(CCc4ccccc4C3)C2=O)c1 (configuration not stated)
-13%	Cc1ccc(C)cc1
-16%	Cc1ccc(C(=O)NCC(=O)NCC(=O)OCC(=O)c2ccc(F)cc2)cc1
1%	CCOC(=O)C(NC(=O)c1cccc(Cl)c1)(Nc1sc2c(c1C(N)=O)CCC2)C(F)(F)F (configuration not stated)
-2%	CCCC(=O)Nc1ncnc2c1ncn2[C@@H]1O[C@H]2COP(=O)(O)O[C@@H]2[C@@H]1OC(=O)CCC
-15%	COC(=O)C1=C(C(=O)OC)[C@@H]2N(C)c3ccccc3[C@@]23C[C@@H](CO)N(C(=O)c2cc(C)oc2C)C3=N1
?	C=CCNc1ncnc2c1cnn2-c1cccc(C)c1
-5%	CCOC(=O)C(NC(=O)c1ccccc1Cl)(Nc1ccc(C)c(C)c1)C(F)(F)F (configuration not stated)
-9%	CCS(=O)(=O)c1c([N+](=O)[O-])ncn1C
-3%	O=C(Cn1cncn1)NCc1ccc(Cl)cc1
-3%	CN1CCN(c2nc(-c3cccc(NS(C)(=O)=O)c3)nc3ccccc23)CC1
?	CCOC(=O)CNC(=O)CSc1nnc(SCC(=O)NCC(=O)OCC)s1
?	COCCCNC(=O)c1cc2c(-c3ccc(Cl)cc3)nn(C)c2s1
-5%	CCOC(=O)C1CCCN(Cc2cc(Br)c(OC)cc2OC)C1 (configuration not stated)
-11%	Nc1[nH]n2c(=O)c3c(nc2c1N=Nc1ccc(Cl)cc1)CCCC3
-14%	OCc1nnc2c3ccccc3c(-c3ccccc3)nn12
-18%	CN(C)c1ccc(C(=O)OCC(=O)NCC2CCCO2)cc1 (configuration not stated)
3%	CCOc1ccc(C(C(=O)NC2CCCCC2)N(C(=O)c2ccco2)c2ccc(-n3cnnn3)c(C)c2)cc1 (configuration not stated)
-9%	O=C(Nc1ccc2c(c1)OCO2)N1CCN(c2ncccn2)CC1
-21%	CC(=O)N1CCC[C@@]2(CCN(c3ncccn3)C2)C1
-21%	CCN(CC)c1ccc(NC(=O)/C=C/c2cc(Br)ccc2OC)cc1
-9%	C#CCOC(=O)CCCC(=O)Nc1ccccc1OC
-10%	CCc1cc[n+](C2=C([O-])c3ccccc3C(=O)/C2=N\S(=O)(=O)c2cccs2)cc1
-10%	O=C(NCc1ccco1)c1c(O)c2cccc3c2n(c1=O)CCC3
?	CCCCc1cc(O)c(CCCC)c(O)c1
?	COc1ccccc1NC(=O)c1nnn(CC(=O)Nc2ccccc2)c1N
-23%	N#Cc1cccc(NC(=O)N2CCCC3(CCN(C(=O)c4ccco4)CC3)C2)c1
-9%	Cc1ccc2cc3c(N)c(C(=O)Nc4c(C)[nH]c(=O)[nH]c4=O)sc3nc2c1
-3%	CC(C)OC(=O)CCC(=O)Nc1nc2ccccc2s1
-3%	O=C(Cc1ccccc1)NC(NNc1ccccc1)(C(F)(F)F)C(F)(F)F
-5%	CC(C)CN1CC[C@@]2(CCCN(C(=O)c3ccco3)C2)C1
-14%	CC(=O)Nc1cccc(C(=O)N2CCN(Cc3ccccc3)CC2)c1
-12%	N#Cc1ccc(Oc2nc(Nc3ccc(F)cc3)nc(N3CCCC3)n2)cc1
-7%	CC(=O)Nc1cccc(OCC(=O)NS(=O)(=O)c2ccc(C)cc2)c1
-20%	Cc1cccc(N2CCN(C(=O)c3ccc4nc(-c5ccco5)c(-c5ccco5)nc4c3)CC2C)c1 (configuration not stated)
-4%	C=CCn1c2ccccc2c2nnc(SCC(=O)Nc3cc(C)on3)nc21
-6%	COc1ccc([N+](=O)[O-])cc1NC(=O)C(C)OC(=O)C1c2ccccc2Oc2ccccc21 (configuration not stated)
-12%	CCC(C(=O)NC(C)CCc1ccccc1)n1nc(C)n2c(cc3occc32)c1=O (configuration not stated)
-20%	Cc1csc(N(C)C(=O)CSc2nnc(COc3cccc4ccccc34)o2)n1
-16%	Cc1cc(C)n2nc(C(=O)Nc3ccccc3N3CCOCC3)nc2n1
?	Cc1c(O)c(CN2CCCC2)cc2c3c(c(=O)oc12)CCC3
-5%	CCC(=O)N1Cc2ccccc2-c2ccccc2C1=O
?	N=C1C(c2nc3ccccc3s2)=C(O)CN1Cc1ccccc1
-9%	O=C(C1CCCO1)N1CCN(C(=S)Nc2ccccc2C(F)(F)F)CC1 (configuration not stated)
0%	COc1cc(C(=O)OC(C)CN2CCCC2)cc(OC)c1OC (configuration not stated)
-12%	O=c1cc(N2CCCCC2)c(-c2ccccc2)nn1Cc1c(Cl)cccc1Cl
1%	Cc1ccc2ccccc2c1Cn1c(-n2ccnc2)nc2c1c(=O)n(C)c(=O)n2C
-27%	COC(=O)c1ccc(CSc2nc3ccc(Cl)cc3[nH]2)o1
-4%	CC(NS(=O)(=O)c1ccc(OCC(=O)N2CCOCC2)cc1)c1ccccc1 (configuration not stated)
-4%	COc1ccc(CN2CCCCC2C(=O)Nc2ccc(OC)c(OC)c2)cc1OC (configuration not stated)
-6%	O=C(CC1Sc2ccccc2NC1=O)Nc1cccnc1 (configuration not stated)
-14%	N#CCC(=O)N/N=C/c1ccc(Sc2nc3ccccc3s2)o1
-6%	COc1ccc(-c2noc(C3CCCN(C(=O)c4cccs4)C3)n2)cc1 (configuration not stated)
-18%	COc1ccc(C(=O)NCCC2=CCCCC2)cc1OC
-12%	CCOC(=O)CSc1nc2c(c(=O)[nH]c(=O)n2C)n1CCCc1ccccc1
?	CCCc1cc(NCCCCO)n2c(nc3ccccc32)c1C#N
-4%	Cc1ccc(NC(=O)CSc2ccccc2NC(=O)c2cccc(Cl)c2)cc1Cl
-4%	COc1cc2nc(CC(C)C)n(NC(=O)c3ccccc3)c(=O)c2cc1OC

# (list continues)
HPGD inh	compound
-27%	CCOc1ccc2c(c1)OC(c1ccc(C)cc1)(C(F)(F)F)NC2=O (configuration not stated)
-2%	NC(=O)[C@H](Cc1cc2ccccc2s1)NC(=O)[C@@H]1CC2(CC(c3cccc(NC(=O)[C@@H]4CCC(=O)N4)c3)=NO2)CN1C(=O)c1ccccc1 (some centres not stated)
2%	COc1cccc(C(c2sc3nc(C)nn3c2O)N2CCN(C(=O)c3ccco3)CC2)c1 (configuration not stated)
-6%	C=C[C@H](C)[C@](C)(O)c1ccccc1
-14%	O=C1CC(C2CCCO2)C(=O)N1Cc1ccccc1 (configuration not stated)
-4%	Cn1c(=O)c2c(nc(NC3CCCCC3)n2Cc2ccccc2)n(C)c1=O
-1%	CCOC(=O)COc1c(OC)cc(Cl)cc1C1NC(=O)NC(C)=C1C(C)=O (configuration not stated)
-17%	COc1cc(C2CC(=O)Oc3cc(C)c(Br)c(C)c32)cc(OC)c1OC (configuration not stated)
0%	O=C(OCn1nnc2ccccc2c1=O)c1ccc(S(=O)(=O)N2CCOCC2)cc1
-15%	COc1ccc(-c2cc3ccccc3oc2=O)cc1NC(=O)c1ccc([N+](=O)[O-])o1
?	COC(=O)[C@H](CCSC)NC(=O)Nc1ccc(OC)c(Cl)c1
-3%	Cc1cc(NC(=O)CCC(=O)N(c2cccnc2)C(C(=O)NC2CCCC2)c2ccccc2F)no1 (configuration not stated)
1%	O=C(CN1C(=O)NC2(CCCc3ccccc32)C1=O)Nc1cccc(S(=O)(=O)N2CCCCC2)c1 (configuration not stated)
-5%	O=C(OCC(=O)N1CCN(C(=O)c2ccco2)CC1)c1ccccc1OCc1ccccc1
-6%	Cc1cc(C)n(-c2nnc(C)n2/N=C/c2ccccc2OCc2ccccc2Cl)n1
-1%	O=C(Nc1ccncc1)C1CCCN(S(=O)(=O)c2cccc3cccnc23)C1 (configuration not stated)
-22%	C=CCSc1nc2c(c(=N)n1CC=C)C1CCCC1S2 (configuration not stated)
-4%	CCOC(=O)c1ccc(NC(=O)COc2ccc(S(=O)(=O)NC(C)C)cc2)cc1
1%	COc1cc(C(=O)N2CCN(S(=O)(=O)c3ccc(F)cc3)CC2)cc(OC)c1OC
25µM*	CSc1cccc(NS(=O)(=O)c2ccccc2)c1
-4%	Cc1cccc(OCC(=O)N(Cc2cccs2)C2CCS(=O)(=O)C2)c1C (configuration not stated)
-10%	COc1ccc(COc2ccsc2C(=O)Nc2ccc(Cl)cc2)cc1
-3%	O=C(COc1ccc(S(=O)(=O)N2CCCCC2)cc1)NCc1cccnc1
-29%	CCC1CCCCN1C(=O)CSc1nc2c([nH]c3ccccc32)c(=O)n1C (configuration not stated)
-8%	COC(=O)C1=C(O)/C(=C\c2ccc(O)c(OC)c2)N=C1C
-19%	O=C(Cn1cccc1C(=O)c1ccccc1)NCCN1CCOCC1
-12%	CC(=O)c1c(C)nc2ccccc2c1N
-156%	O=C(Nc1nc2ccccc2s1)c1cc2c(s1)-c1ccccc1OC2
-12%	CCn1c(SCC(=O)Nc2nc3c(s2)CCCC3)nnc1-c1ccccc1
-24%	Cc1ccc2nnc(Cl)n2n1
-16%	CC(=O)Oc1ccc(N(C(C)=O)S(=O)(=O)c2cc([N+](=O)[O-])ccc2C)cc1
-11%	CCOC(=O)Cc1csc(NC(=S)NC(=O)CC(C)C)n1
-14%	COC(=O)C1=C(C(=O)OC)[C@@H]2N(C)c3ccc(OC)cc3[C@@]23C[C@@H](C(=O)OC)N(C(=O)C2CCC2)C3=N1
-10%	COc1ccc(C(C(=O)NC(C)(C)C)N(C(=O)CNC(=O)c2cccs2)c2ccc(C)cc2)cc1OC (configuration not stated)
1%	CC[C@H]1OC(=O)[C@H](C)[C@@H](O[C@H]2C[C@@](C)(OC)[C@@H](O)[C@H](C)O2)[C@H](C)[C@@H](O[C@@H]2O[C@H](C)C[C@H](N(C)C)[C@H]2O)[C@](C)(O)C[C@@H](C)[C@@H]2N[C@@H](COCCOC)O[C@H]([C@H]2C)[C@]1(C)O
-6%	Cc1ccccc1CCN(C(=O)CN1C(=O)c2ccccc2S1(=O)=O)C(C(=O)NCC1CCCO1)c1ccncc1 (configuration not stated)
32µM*	Cc1ccc(-c2nn(C)c(=O)c3ccccc23)cc1CO
-14%	Cn1c(=O)[nH]c(=O)c2c1nc(NCCCO)n2Cc1ccc(F)cc1
-7%	CC12CCC(C(=O)N(NC(=O)c3cccnc3)C1=O)C2(C)C (configuration not stated)
-9%	COc1ccccc1Nc1nc(-c2cccc(N3C(=O)c4ccccc4C3=O)c2)cs1
-10%	Cc1cc(C(F)(F)F)nn1CC(=O)NNC(=S)Nc1ccc(F)cc1
-5%	O=C(NC(Nc1nc2ccc([N+](=O)[O-])cc2s1)(C(F)(F)F)C(F)(F)F)c1ccccc1
-3%	Cc1ccc(CSc2nc3ccsc3c(=O)n2Cc2ccccn2)cc1
2%	Cc1cc(C)c(NC(=O)c2cnn(C)c2)c(C)c1
?	COc1ccc2c(c1)c1ncn(CCCN3CCOCC3)c(=O)c1n2C
-11%	COc1cc(OC)cc(C(=O)OCn2nnc3ccccc3c2=O)c1
-9%	CCOc1ccc(N2CC(C(=O)OCC(=O)NCc3ccccc3)CC2=O)cc1 (configuration not stated)
-9%	CC(=O)c1ccc(-n2nncc2C)cc1
5µM*	O=C(CCCn1c(SCC(=O)c2ccc(O)c(O)c2)nc2ccccc2c1=O)NCC1CCCO1 (configuration not stated)
-7%	Cc1nc(NC(=O)c2cccnc2)ccc1Br
-15%	Cc1ccc2cc(CCNC(=O)c3c(-c4ccccc4Cl)noc3C)c(=O)[nH]c2c1
-5%	Cc1ccc(C(=O)CN(C(=O)c2ccc(Cl)cc2)N2C(=O)c3ccccc3C2=O)cc1
-22%	CCS(=O)(=O)NCCc1cc2c(OC)ccc(OC)c2[nH]c1=O

# Screens: PubChem, National Center for Advancing Translational Sciences (NCATS)
